PrP UTR inh: inhibition of PrP 5' UTR reporter expression; cell-based PrP 5' UTR mRNA reporter, plate reader; AID 488862, 2010; hit rate 0.35% among 340,000; inhibition, % (no concentration beside the values);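 active = every replicate at 50% or more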;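 also: 0 = median of the neutral control wells; tested in H4 reporter cells; numbers are from one replicate; inactives centre near -14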
Bead autofluor: flagged as autofluorescent in microsphere protease counterscreen; compound autofluorescence counterscreen, microsphere flow cytometry; hits give high values; hit rate 3.1% among 360,000; fluorescence intensity (test concentration not listed);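 active = at least 3 SD above the mean of all compounds, about 16000 in these data; inconclusive = too few beads counted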;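 also: 100 nL of 1 mM stock went into each well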
Sa RN4220 lethal: growth inhibition of S. aureus RN4220, primary screen, OD600 | 16 h | inhibition, % (no concentration beside the values) | hit rate 0.33% among 330,000;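 active = z-score of -3 or lower and OD600 up to 0.18 on both plates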;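 also: plate controls were untreated cells for no effect and reference antibiotic for full effect; stock transfer was 100 nL into about 80 µL; one replicate is shown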
Mtb hypoxia rep: PubChem AID 1159583. M. tuberculosis hypoxia-regulated fluorescent reporter, fluorescence. fluorescence inhibition, % (test concentration not listed). hit rate 0.1% among 300,000;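 active = 35 to 45% if threefold the growth effect, above 45% if 1.5-fold the growth effect; inactive = the rest, general growth blockers included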;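 also: wells of about 50 µL received 100 nL stock; 0% = vehicle wells and 100% = reference inhibitor wells; whole bacteria with a GFP reporter of the hypoxia response; strong numbers were not always called active; many hits fall short of the cut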
ugtP null kill: growth inhibition of ugtP-null S. aureus, primary screen, RN4220 ugtP deletion, OD600; 16 h; some inactives read as strong as hits; growth inhibition, % (no concentration beside the values); hit rate 0.54% among 330,000;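 active = z-score under -3 and OD600 up to 0.15 on both plates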;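 also: plate controls were untreated wells for no effect and antibiotic for full effect; wells of about 80 µL received 100 nL stock; the first replicate is given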
BJeLR lethal: MLPCN primary cell-based screen for lethality selective to Ras in HRASV12 cells | BJeLR (HRASV12) viability, CellTiter-Glo ATP luminescence, 48 h; reference of the scale not given here | inhibition, % (no concentration beside the values) | hit rate 0.17% among 300,000;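 active = replicate mean above 50%; inconclusive = above 50% but judged a plate artefact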;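 also: 50 nL library stock added to about 25 µL; numbers are from one replicate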
Mtb hypoxia rep growth: recorded beside Mtb hypoxia rep, whose call it bears; growth inhibition, %; measured here: M. tuberculosis growth (absorbance);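 0% = vehicle and 100% = reference antibiotic; read after six days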
An asterisk follows results filed as active; ? = inconclusive; nt = not tested or not shown; & = joins results of further samples. Random draw from the library; about 4% have a hit in one of these screens.

No.	smiles	PrP UTR inh	Bead autofluor	Sa RN4220 lethal	Mtb hypoxia rep	Mtb hypoxia rep growth	ugtP null kill	BJeLR lethal
1	CC[C@]12C=CCN3CCC4(c5cc(Br)c(OC)cc5N(C)C4[C@@](O)(C(=O)OC)[C@@H]1OC(C)=O)C32 (stereo partly drawn)	-1&-12	4061	1.4	15	2	6	-3
2	CC(C)Oc1ccc(NC(N)=O)cc1	-14	8881	2.8	4	1	3	6
3	CC(=O)N1CCN(c2ccccc2NC(=O)c2cccc3c(Cl)cccc23)CC1	-30	3944	1.5	-7	3	5	1
4	O=C1[C@H]2[C@H](C=CC[C@H]2C(=O)N2CCN(c3ccccc3)CC2)CCN1Cc1ccc(Cl)c(Cl)c1	2	4002	nt	nt	nt	nt	4
5	O=C(CSc1nc(-c2ccco2)cc(C(F)(F)F)n1)NCCCn1ccnc1	9	4277	1.1	5	7	10	8
6	CC1(C)NC(=O)N(CC(O)CN2CCCCC2)C1=O (stereo not drawn)	-17	19639*	6.0	3	9	-10	4
7	CCc1nnc(NN=Cc2c(F)cccc2Cl)n1N	nt	nt	4.8	3	3	3	nt
8	COc1ccc(N2CCN(C(=O)c3ccc(N4CCCCS4(=O)=O)cc3)CC2)cc1	8	5766	3.0	-2	-2	1	6

(continued)
No.	smiles	PrP UTR inh	Bead autofluor	Sa RN4220 lethal	Mtb hypoxia rep	Mtb hypoxia rep growth	ugtP null kill	BJeLR lethal
9	O=C(Nc1ccccc1O)c1nc(Cl)ccc1Cl	-13	4452	-0.7	-2	14	-8	0
10	O=S1(=O)N=C(Nc2ccc(O)c(CN3CCCCC3)c2)c2ccccc21	-18	8066	5.8	13	5	1	-9
11	COc1ccc(-c2noc(CSc3nc(N)c(-c4ccccc4)c(=O)[nH]3)n2)cc1OC	4	2679	9.1	10	6	2	2
12	Cc1cc(NC(=O)COC(=O)c2ccccc2Cl)no1	-15	nt	3.5	12	-4	4	nt
13	CCCCc1nc2cc(C(=O)N(C)C3CCOCC3)ccc2o1	-42	5939	1.9	11	5	-1	-9
14	COCCCNC(=O)C[C@H]1C[C@H](C(=O)N2CCCCC2)[C@@]2(C)c3[nH]c4cc(-c5ccco5)ccc4c3CCN2C1=O	-4	3504	-0.8	-5	6	-1	nt
15	O=C(Nc1nnc(C2CC2)s1)c1ccco1	-41	4656	-1.9	11	6	3	0
16	CCCCOc1ccc(C(=O)NCC(=O)NC2CC2)cc1	-17	?	2.3	3	2	5	nt

New compounds follow
No.	smiles	PrP UTR inh	Bead autofluor	Sa RN4220 lethal	Mtb hypoxia rep	Mtb hypoxia rep growth	ugtP null kill	BJeLR lethal
17	O=C(Cc1ccc([N+](=O)[O-])cc1)OCc1c(F)cccc1Cl	-6	nt	4.2	13	1	8	5
18	Cc1ccc(CONC(=O)c2ccccc2)cc1	-50	4109	3.9	2	8	2	3
19	Cc1noc(C(=O)Nc2ccc3c(c2)OCO3)c1Cl	-43	4167	4.4	2	9	-5	1
20	CN(C)C(=S)Nc1ccc2c(c1)OCCO2	-28	nt	4.0	8	0	8	4
21	COc1ccc(N2C(=NC(=O)CC3CCCCC3)SC3CS(=O)(=O)CC32)cc1 (stereo not drawn)	4	6182	0.1	-9	1	0	2
22	CC12CCC(=O)N1C(C(=O)NCCN1C(=O)S/C(=C\c3ccccc3F)C1=O)CS2 (stereo not drawn)	-28	?	0.2	2	4	2	-10
23	O=c1cc(CSc2nnc(COc3cccc4ccccc34)o2)c2ccccc2[nH]1	-24	3949	2.0	12	1	-2	1
24	CCC(=O)c1ccc(OCC(O)Cn2nc(C)c(C(C)=O)c2C)cc1 (stereo not drawn)	-14	2209	-1.8	0	13	-8	-4

The results go on:
No.	smiles	PrP UTR inh	Bead autofluor	Sa RN4220 lethal	Mtb hypoxia rep	Mtb hypoxia rep growth	ugtP null kill	BJeLR lethal
25	Nn1c(SC/C=C/c2ccccc2)nnc1-c1cccnc1	2	21822*	1.2	-1	1	4	4
26	Cc1sc2ncn3c(C)nnc3c2c1C	-12	3290	7.7	6	13	-1	-2
27	O=C(Nc1nnc(-c2ccncc2)o1)c1ccccc1	-1	4487	7.4	-2	5	-1	-17
28	COc1cccc(NC(=O)C(NC2CCCC2)c2ccccc2)c1 (stereo not drawn)	-18	3648	1.4	1	6	0	-5
29	COCCOC1CCN(C(=O)C2CCC(=O)N(CCc3ccc(OC)cc3)C2)CC1 (stereo not drawn)	-16	5124	1.5	2	6	5	5
30	Cc1cccc(-n2cnc(C(=O)O)c2)n1	-14	4372	1.3	6	9	4	-1
31	COc1cccc(S(=O)(=O)N2CCN(C(=O)c3ccco3)CC2)c1	-6	4564	3.6	7	2	3	-2
32	Cc1cc(Cl)cc(C)c1OCCCCCn1ccnc1	-9	3658	-1.0	nt	nt	-12	1

3 of the compounds above, as labelled records.
26. Cc1sc2ncn3c(C)nnc3c2c1C
- PrP UTR inh = -12
- Bead autofluor = 3290
- Sa RN4220 lethal = 7.7
- Mtb hypoxia rep = 6
- Mtb hypoxia rep growth = 13
- ugtP null kill = -1
- BJeLR lethal = -2
27. O=C(Nc1nnc(-c2ccncc2)o1)c1ccccc1
- PrP UTR inh = -1
- Bead autofluor = 4487
- Sa RN4220 lethal = 7.4
- Mtb hypoxia rep = -2
- Mtb hypoxia rep growth = 5
- ugtP null kill = -1
- BJeLR lethal = -17
28. COc1cccc(NC(=O)C(NC2CCCC2)c2ccccc2)c1 (stereo not drawn)
- PrP UTR inh = -18
- Bead autofluor = 3648
- Sa RN4220 lethal = 1.4
- Mtb hypoxia rep = 1
- Mtb hypoxia rep growth = 6
- ugtP null kill = 0
- BJeLR lethal = -5

The results go on.
No.	smiles	PrP UTR inh	Bead autofluor	Sa RN4220 lethal	Mtb hypoxia rep	Mtb hypoxia rep growth	ugtP null kill	BJeLR lethal
33	COC(=O)C1=C(N)Oc2cc(C)n(Cc3ccncc3)c(=O)c2C1c1cccnc1 (stereo not drawn)	-4	3012	-1.0	2	8	-8	3
34	Cc1ccccc1OCC(=O)NN=Cc1sc(=O)n(Cc2cccc(C(=O)O)c2)c1Cl	nt	nt	6.1	-5	3	6	nt
35	COc1cc(O)c(C(CC(=O)N2CCOCC2)c2ccc3c(c2)OCO3)c(OC)c1 (stereo not drawn)	-10	3867	4.9	2	7	2	14
36	O=C(O)Cn1c(P(=O)(O)c2ccccc2)nc2ccccc21	-10	4426	7.6	14	5	3	-4
37	Clc1ccc2[nH]c3c(NCCCN4CCOCC4)ncnc3c2c1	-19	2463	4.0	7	13	9	-3
38	N#CCC(=O)N/N=C/c1cc([N+](=O)[O-])ccc1N1CCCC1	-9	4368	nt	nt	nt	nt	13
39	COc1ccc(/C=C2\Cc3ccccc3C2=O)cc1OC	-11	3993	5.2	10	6	-7	2
40	CC(=O)c1cccc(NC(=O)CN2CCN(Cc3ccccc3)CC2)c1	-32	3865	6.7	10	3	6	-1

The list continues.
No.	smiles	PrP UTR inh	Bead autofluor	Sa RN4220 lethal	Mtb hypoxia rep	Mtb hypoxia rep growth	ugtP null kill	BJeLR lethal
41	CCOC(=O)C1CCN(C(=O)Cn2cnc3sc(C)c(S(=O)(=O)N4CCC(C)CC4)c3c2=O)CC1	-15	3039	1.7	15	2	3	-13
42	CCCOc1ccc(CSC2=NCCN2)cc1[N+](=O)[O-]	-16	3428	-8.1	-3	7	-5	2
43	Cc1ccc(C(=O)COC(=O)c2ccc3c(c2)C(=O)N(c2cccc4ncccc24)C3=O)cc1C	-15	3966	9.1	6	10	-3	-8
44	O=C(Nc1ccccc1F)c1oc2ccccc2c1NC(=O)C1CC1	-11	6755	7.6	-13	-12	4	-13
45	CCOC(=O)CNc1ncc(C(F)(F)F)cc1Cl	-9	4048	2.4	14	9	1	-2
46	O=C(CN1CCC(NC(=O)c2ccco2)CC1)Nc1ccccc1C(F)(F)F	5	5353	1.8	-8	1	3	-3
47	S=c1[nH]nc(-c2ccco2)n1C1CCCCC1	-29	2622	5.1	18	7	-3	-2
48	CC(/C=C/c1ccccc1)=N\NC(=O)CCc1ccccc1	-38	5070	nt	nt	nt	nt	2

New compounds follow
No.	smiles	PrP UTR inh	Bead autofluor	Sa RN4220 lethal	Mtb hypoxia rep	Mtb hypoxia rep growth	ugtP null kill	BJeLR lethal
49	O=C(Nc1ccc(S(=O)(=O)N2CCOCC2)cc1)C1CCN(S(=O)(=O)c2ccc(F)cc2)CC1	-5	5999	0.9	4	5	8	1
50	CCN(CC(=O)Nc1ccc(NC(C)=O)cc1)C(=O)COc1ccccc1-c1ccccc1	-16	3797	0.7	1	1	-1	nt
51	O=C(COc1ccc(F)cc1)c1c(O)cc(O)cc1O	nt	3490	-2.5	6	-3	-5	-7
52	COc1ccc(CNC(=O)C/C(C)=N/NC(=O)c2ccc([N+](=O)[O-])cc2Cl)cc1	-15	3554	nt	nt	nt	nt	-5
53	COC1=C/C(=C/c2c(O)c(C#N)c3ccccn23)C=CC1=O	2	3355	nt	nt	nt	nt	8
54	O=S(=O)(Cc1ccccc1)Nn1cnnc1	-29	22495*	4.1	4	13	-3	-13
55	O=C(O)c1cccc(CSc2nc(-c3ccccc3)cc(C(F)(F)F)n2)c1	-8	2563	9.4	13	5	-14	5
56	CC(=O)Nc1ccc(S(=O)(=O)NCc2ccc(C(=O)N3CCOCC3)cc2)cc1	-5	5479	1.8	0	-1	2	1

Going on with the list.
No.	smiles	PrP UTR inh	Bead autofluor	Sa RN4220 lethal	Mtb hypoxia rep	Mtb hypoxia rep growth	ugtP null kill	BJeLR lethal
57	COc1ccc(C(=O)N/C(=C\c2cccc3ccccc23)C(=O)N2CCN(C)CC2)cc1OC	8	4178	10	-4	4	4	0
58	O=S(=O)(/N=C/N1CCOCC1)c1ccc(Cl)cc1	-32	8172	nt	nt	nt	nt	-10
59	CC(=O)Nc1ccc(S(=O)(=O)N(C)CC(=O)OCC(=O)N(CC(C)C)C2CCS(=O)(=O)C2)cc1 (stereo not drawn)	-41	5560	1.2	5	-9	3	-6
60	CCOc1ccccc1NC(=O)Nn1cnnc1	36	5916	6.1	7	-1	10	4
61	Cc1ccc(S(=O)(=O)N(C)C)cc1NC(=O)c1ccncc1	-15	3353	4.6	15	4	2	0
62	CCN1CCN(CC(=O)Nc2cc(C(F)(F)F)ccc2OCCOC)CC1	-28	4318	2.7	11	2	2	5
63	CC(=O)c1sc(-c2ccccn2)nc1C	nt	nt	0.6	10	6	1	0
64	Cc1ccccc1-c1n[nH]c(=S)n1Cc1ccccc1	-9	2001	4.6	-3	6	-3	1

(continued)
No.	smiles	PrP UTR inh	Bead autofluor	Sa RN4220 lethal	Mtb hypoxia rep	Mtb hypoxia rep growth	ugtP null kill	BJeLR lethal
65	CCCN1CCC(=O)N(C(CSc2ccc(C)cc2)Cc2ccccc2)CC1 (stereo not drawn)	nt	nt	2.9	16	6	7	nt
66	COc1ccc(C(CNC(=O)c2cccc(S(=O)(=O)Nc3ccccc3Cl)c2)N2CCOCC2)cc1 (stereo not drawn)	6	6847	6.4	-2	7	-20	1
67	COc1cc(C=NS(=O)(=O)CCc2ccccc2)ccc1O	nt	nt	5.8	-1	6	-4	nt
68	Cc1cccc(-c2ccc3ncnc(NCc4cccs4)c3c2)c1	-5	4067	-17	6	19	16	nt
69	COc1cccc(OC)c1C(=O)N1CCN(Cc2cccnc2)CC1	-7	3852	nt	nt	nt	nt	13
70	OC1CN=C2Sc3ccccc3N2C1 (stereo not drawn)	-6	3787	1.2	9	10	13	18
71	CCc1ccc(NC(=O)c2cccnc2)cc1	-46	21122*	4.6	3	13	-8	10
72	O=C(Cn1cnc2sc3c(c2c1=O)CCCC3)NCC(=O)Nc1ccccc1F	-18	5531	0.9	-2	8	1	-11

Going on with the list:
No.	smiles	PrP UTR inh	Bead autofluor	Sa RN4220 lethal	Mtb hypoxia rep	Mtb hypoxia rep growth	ugtP null kill	BJeLR lethal
73	Cc1cccc(OCC(=O)Nc2ccc3c(c2)nc(CCN2CCCCC2)n3C)c1	-5	5687	-2.1	-2	-14	-1	10
74	COC(=O)c1cccc(NC(=O)c2nn(C)c(=O)c3ccccc23)c1	-25	4152	4.8	19	10	-10	0
75	COc1cccc(-c2noc(Cn3nc(C(=O)O)c4ccccc4c3=O)n2)c1	-18	5556	2.1	-1	0	15	3
76	COCCN1C(=O)NC(c2cccs2)C(C(=O)OC)=C1C (stereo not drawn)	nt	nt	2.2	10	15	2	nt
77	COc1ccc(Br)cc1CN1CCN(C(=O)c2ccc(OC)c(OC)c2)CC1	-24	4230	2.5	10	-1	4	-9
